Vaccinia Venus: inhibitors of vaccinia virus (Venus reporter); Potency, µM (titrated, usually from 36.5 µM), for inactives: at the top dose activity change, negative = inhibition, hits mostly inhibitors; Vaccinia virus Venus reporter expression, fluorescence; AID 720580; 0.46% of 330,000 active; active means well fitted inhibition curve with a large enough effect; inconclusive means small, poorly fitted or top-dose-only effect; inactive means no such curve, though single readings can be large or run the other way; tested in A549 cells; further: nearly all actives have a fitted effect of over 30% in size; inactives centre near -10
Vaccinia mCherry: vaccinia inhibition (mCherry reporter). Vaccinia virus mCherry reporter infection, fluorescence; about a quarter of the inactives have no number. Potency, µM (highest dose often 36.5 µM), inactives show top-dose activity change, negative = inhibition, hits mostly inhibitors. 0.63% of 310,000 active. AID 720579; active = well fitted inhibition curve with a large enough effect; inconclusive = small, poorly fitted or top-dose-only effect; inactive = no such curve, though single readings can be large or run the other way; tested in A549 cells; further: nearly all actives have a fitted effect of over 35% in size; inactives centre near -10
An asterisk follows results filed as active; i = inactive; ? = inconclusive; . = not tested or not shown; & = joins results of further samples; [ ] = dose if it differs, or a comment. On the % scale 0 is the no-effect control and ±100 the full control effect; potency means the concentration at half of the fitted maximal effect.

SMILES	Vaccinia Venus	Vaccinia mCherry
O=C(/C=C/c1ccc2c(c1)OCO2)NCc1ccncc1	-3%	-13%
COc1ccc(S(=O)(=O)N2CCN(C3CCN(Cc4ccccc4)CC3)CC2)cc1	?	.
Cc1cccc(NC(=O)CSc2nc(-c3cccs3)nc3cc(=O)[nH]n23)c1	2%	4%
CC1CCN(C(=O)c2ccc(COc3ccccc3Cl)o2)CC1	4%	.
Cc1ccc(N2C(=O)C3C(c4ccccc4)N4CCCN4C3(C)C2=O)cc1 (stereo not drawn)	-17%	-11%
COC(=O)c1cc(NC(=O)CN(c2ccc3c(c2)OCO3)S(C)(=O)=O)ccc1Cl	-23%	.
Cc1cc(Nc2ccc(Cl)cc2)nc(NCc2ccccc2)n1	?	11µM*
COc1ccccc1NC(=O)C1CCCN(S(=O)(=O)c2ccc3[nH]c(=O)ccc3c2)C1 (stereo not drawn)	3%	-3%
COC(=O)[C@@]12C[C@@H](CC(=O)NCC34CC5CC(CC(C5)C3)C4)C(=O)N(CCc3ccc(OC)c(OC)c3)C1=CCC(C)(C)C2	?	?
O=C(c1cccc(F)c1F)N1CCOc2ccc(CN3CCC(Oc4cccnc4)CC3)cc2C1	-4%	11%
O=S(=O)(c1ccccc1)N1CCN(S(=O)(=O)N2CCCCC2)CC1	-14%	i
Cn1c(=O)n(C)c2cc([N+](=O)[O-])c(N3CCN(C(=O)c4ccc(Cl)cc4)CC3)cc21	-3%	i
CC(C)CCNC(=O)C(=O)Nc1ccccc1	-9%	-6%
COc1ccc(S(=O)(=O)N2CCCN(CC(=O)C(C)(C)C)CC2)cc1	-13%	-18%
Cc1coc2c1c(C)cc1oc(=O)c(CC(=O)NCC(=O)N[C@H](C(=O)O)C(C)C)c(C)c12	-8%	i
NS(=O)(=O)c1ccc(CCNC(=O)CSc2ccc(Cl)cc2Cl)cc1	-17%	-7%
CCCCC(=O)NNC(=S)NC(=O)CCC	5%	-2%
COC(=O)c1c(C)sc(-c2c(-c3cccc(OC)c3)[nH]c3c2c(=O)[nH]c(=O)n3C)c1O	4%	2%
O=C1C=C(N2CCCCCC2)C(=O)N1c1ccc(Cl)cc1	-8%	-26%
CCC1CN(C(=O)Nc2cccc3c2CCCC3)c2cc(Cl)ccc2O1 (stereo not drawn)	-7%	3%
Nc1ccc(N2CCN(c3ncc(C(F)(F)F)cc3Cl)CC2)c(C(F)(F)F)c1	-5%	-12%
Cc1cc(C)c(NC(=O)COC(=O)CCc2ccc(S(=O)(=O)N3CCCCC3)cc2)c(C)c1	-8%	-15%
CC(C)c1ccc2c(c1)C1(NN=C(c3ccccc3)S1)C(=O)N2 (stereo not drawn)	?	.
N#Cc1c(-c2ccc(Cl)cc2)n(O)c2ccccc12	?	?
Cn1cc(C(=O)NCCN2CCN(c3cccc(Cl)c3)CC2)c2c3ccccc3n(C)c2c1=O	-10%	i
C=CCSc1nc2c(c(=O)[nH]c(=O)n2C)n1Cc1ccc(C)cc1	-17%	-2%
Cc1[nH]nc(SCC(=O)N2CCC(C)CC2)c1[N+](=O)[O-]	-3%	-11%
Cc1cc(=O)oc2c(C)c(OCC(=O)N3CCN(c4ccccc4)CC3)ccc12	-8%	-8%
Nc1ccc(CN2CCCCCC2)cc1	-4%	-5%
CC(O)c1cccc(NC(=O)C2CCCCC2)c1 (stereo not drawn)	-9%	-4%
Cc1ccc(NC(=S)N(CCCN2CCCC2)Cc2cccn2Cc2ccc(Cl)cc2)cc1C	-13%	?
COC(=O)N1[C@H](C)C=C[C@]1(Cc1ccccc1)C(=O)OC	-4%	-4%
COc1ccc(-c2nnc(N(C)C(=O)c3ccco3)s2)cc1OC	-6%	-17%
COc1ccc(CCN2C(=O)N(c3cccc(C)c3)C(=O)C2CC(=O)Nc2ccccc2)cc1OC (stereo not drawn)	0%	1%
COc1ccc(/C=C(/CC(=O)Nc2ccc(C)cc2)c2nc3ccccc3s2)cc1	4%	-14%
Fc1cccc(Cl)c1Cn1nnc2c(NCc3ccncc3)ncnc21	-15%	i
CCOC(=O)C1CCN(C(=O)CSc2ccc(Br)cc2)CC1	-2%	-27%
O=P(Nc1ccccc1)(Nc1ccccc1)Oc1ccccc1	-14%	-16%
CC(C)(C)CC(=O)Nc1nnc(SCC(=O)NC2CCCCC2)s1	3%	27%
Cc1c(Cl)cccc1N(CC(=O)NC(C)c1ccccc1)S(C)(=O)=O (stereo not drawn)	-8%	-5%

Individual results from above:
Entry for O=P(Nc1ccccc1)(Nc1ccccc1)Oc1ccccc1 under Vaccinia Venus: -14%
Entry for COC(=O)c1cc(NC(=O)CN(c2ccc3c(c2)OCO3)S(C)(=O)=O)ccc1Cl under Vaccinia Venus: -23%
Entry for C=CCSc1nc2c(c(=O)[nH]c(=O)n2C)n1Cc1ccc(C)cc1 under Vaccinia mCherry: -2%

The list continues.
SMILES	Vaccinia Venus	Vaccinia mCherry
O=c1c2ccccc2cnn1Cc1cccc(Br)c1	-10%	-13%
C=CCn1c(N)c(C(=O)OCC(C)C)c2nc3ccccc3nc21	-24%	?
O=C(CC1(O)C(=O)Nc2ccccc21)c1ccc(-n2cccc2)cc1 (stereo not drawn)	-6%	i
[N-]=[N+]=NCc1cn2cccnc2n1	-7%	-14%
Cc1ccc(C)c(N2CCN(C(=O)C3CCCCN3S(=O)(=O)c3ccc(F)cc3)CC2)c1 (stereo not drawn)	-23%	-10%
Cc1cccc(Oc2nc(-c3ccccc3)cc(C)c2S(C)(=O)=O)c1C	?	.
Cc1cccc(C(=O)NCc2nc(-c3ccccc3NC(=O)C3CCCO3)oc2C)c1 (stereo not drawn)	5%	-9%
CCOC(=O)c1cc(OC(=O)c2ccc(OC)c(OC)c2)n(-c2ccccc2)n1	2%	3%
CCOC(=O)c1c(NC(=O)/C=C/c2ccc(C)cc2)sc(C(C)=O)c1C	9%	-2%
CC1=C(C(=O)N2CCCCCC2)CC(CC(=O)NC2CCCC2)C(=O)N1Cc1ccc(F)cc1 (stereo not drawn)	-1%	-4%
O=C(COC(=O)Cc1ccccc1)Nc1ncc(Cl)cc1Cl	-19%	.
COc1ccc(CN2CCc3c([nH]c4ccccc34)C2)c(OC)c1C	-16%	-25%
CCOC(=O)Cc1ncccc1C(=O)Nc1ccc(OC(F)(F)F)cc1	1%	-8%
COc1cc(C)c(NC(=S)Nc2cccc(Cl)c2C)cc1OC	-10%	-9%
Cn1ncc(Br)c1C(=O)N1CCCCCC1	-9%	-7%
CC(C)Oc1ccc(F)cc1-c1cc(C(=O)NCc2ccc(F)cc2)[nH]n1	?	i
CCOC(=O)CN(C(=O)c1snc(C(N)=O)c1N)C(C(=O)NCCC(C)C)c1ccc(C)cc1 (stereo not drawn)	-19%	i
CCCN1Cc2cccc(C(=O)Nc3ccccc3C(=O)OC)c2C1=O	4%	-7%
COC(=O)C1=C(N)N(c2ccc(F)cc2)C2=C(C(=O)CCC2)C1c1ccc2c(c1)OCO2 (stereo not drawn)	3%	.
COc1ccc(-c2ccc3[nH]c4c(c3c2)CCN2C(=O)[C@@H]([C@H](C)O)[C@@H](N(C)C(=O)Nc3cc(Cl)cc(Cl)c3)C[C@@H]42)cc1	?	?
C=CCn1c(SCC(=O)NCC)nnc1-c1cc2c(s1)CCC(CC)C2 (stereo not drawn)	-24%	-29%
CCOc1ccc(NC(=O)c2c(NCc3cccs3)sc3c2CCCCC3)cc1	0%	-10%
N/C(=N\OC(=O)COc1ccc2ccccc2c1Br)c1ccccn1	9%	-14%
Cc1cc(/C=C(\C#N)C(=O)OCC(=O)NC(=O)NC(C)(C)C)c(C)n1CCC(C)C	?	.
NNC(=O)COc1cccc(C(F)(F)F)c1	-11%	-1%
O=C(Nc1cccnc1)c1cc(S(=O)(=O)N2CCOCC2)ccc1Br	-8%	-10%
O=C(NC1CCCCCC1)C1CCN(C(=O)N2CCOc3ccccc32)CC1	-12%	-8%
OCCC1CN(Cc2cc3c(cc2Cl)OCO3)CCN1C1CCCCC1 (stereo not drawn)	-1%	-13%
CSc1nc(SCc2ccccc2)[nH]c(=O)n1	-4%	-13%
Cc1cccc(NC(=O)N2CCc3c(sc4c3CCCC4)C2c2ccc(F)cc2)c1 (stereo not drawn)	1%	i
CC(C)(C)OC(=O)N1CC2(CCCCC2)CC1Cc1ccc(C(F)(F)F)cc1 (stereo not drawn)	-13%	-14%
Cc1ccccc1CN1CCC(CNc2ncnc3onc(-c4ccc(Cl)cc4)c23)CC1	2%	-8%
O=C(CC1S/C(=N/N=C/c2cccs2)NC1=O)Nc1ccc(Cl)cc1 (stereo not drawn)	-16%	i
O=C1CC(=O)N(Cc2ccccc2)C(=O)N1	0%	i
O=C(CNC(=O)c1ccccn1)N=Nc1c(O)[nH]c2ccccc12	7%	-30%
Cc1cc(Cl)ccc1NC(=O)CCS(=O)(=O)c1cc2c(cc1C)NC(=O)CO2	-10%	-6%
CC1CN(CC(O)COC(c2ccccc2)c2ccccc2)CC(C)O1 (stereo not drawn)	-8%	-3%
CC(=O)Oc1ccc(/C=N/NS(=O)(=O)c2ccccc2)cc1	-15%	i
O=S(=O)(c1ccc(Cl)cc1)N1CCN(C(=S)NCC2CCCO2)CC1 (stereo not drawn)	-8%	i
COC(=O)[C@H](Cc1ccccc1)N1C/C=C\COc2c(Cl)cc(Cl)cc2S1(=O)=O	-8%	i

Sorted by SMILES length (lowest first): 3 of the compounds above.
SMILES	Vaccinia Venus	Vaccinia mCherry
CSc1nc(SCc2ccccc2)[nH]c(=O)n1	-4%	-13%
CC1CN(CC(O)COC(c2ccccc2)c2ccccc2)CC(C)O1 (stereo not drawn)	-8%	-3%
Cc1cc(Cl)ccc1NC(=O)CCS(=O)(=O)c1cc2c(cc1C)NC(=O)CO2	-10%	-6%

Record cards (already shown). Order of values: Vaccinia Venus, Vaccinia mCherry
OCCC1CN(Cc2cc3c(cc2Cl)OCO3)CCN1C1CCCCC1 (stereo not drawn) in the list: -1%, -13%
CC(C)(C)OC(=O)N1CC2(CCCCC2)CC1Cc1ccc(C(F)(F)F)cc1 (stereo not drawn) in the list: -13%, -14%
C=CCn1c(SCC(=O)NCC)nnc1-c1cc2c(s1)CCC(CC)C2 (stereo not drawn) in the list: -24%, -29%

Continued:
SMILES	Vaccinia Venus	Vaccinia mCherry
COCCn1c(SCC(=O)NC(=O)NC(C)(C)C)nc2ccccc21	-9%	-12%
CCCCN(CCCC)Cc1cc(=O)oc2ccc3ccccc3c12	3%	45%[activator]
O=C(COC(=O)CC1CC2CCC1C2)NCc1ccc(Cl)cc1 (stereo not drawn)	13%	-14%
CCn1c(C(C#N)/C(=N\S(=O)(=O)c2cccs2)c2ccccc2)nc2ccccc21 (stereo not drawn)	-16%	i
Cc1ccc(C)c2sc(NC(=O)c3ccc(N4CCCCC4)c([N+](=O)[O-])c3)nc12	-7%	-18%
CN(CC(=O)NCc1ccco1)CC(=O)Nc1c(Cl)cccc1Cl	-11%	i
O=C(OCC(=O)N1CCCCCC1)c1ccc(Cl)c(S(=O)(=O)N2CCCC2)c1	-2%	-1%
O=C(CSc1nnc(NC(=O)c2ccc(F)cc2F)s1)NC1CC1	2%	5%
Cc1noc(C)c1NC(=O)Nc1ccc2c(c1)C(=O)N([C@H](C)CO)C[C@H](C)[C@H](CN(C)C)O2	-5%	i
CC1(C)CC(=O)C=C(NCc2cccnc2)C1	-13%	i
O=C(CSc1cn[nH]n1)Nc1cccc(C(=O)O)c1	-9%	-7%
O=c1[nH]c(CSc2nnnn2-c2ccccc2)nc2ccccc12	-11%	i
COc1ccc(S(=O)(=O)Nc2ccc(C)c(S(=O)(=O)N3CCOCC3)c2)cc1[N+](=O)[O-]	-10%	-11%
CCCN1CCN(S(=O)(=O)c2ccc3c(c2)NC(=O)C(C)C(=O)N3)CC1 (stereo not drawn)	-9%	i
Cc1ccc(S(=O)(=O)N2C(=O)CCC2C(=O)Nn2cnnc2)cc1 (stereo not drawn)	-5%	-13%
COc1ccc(N2C(=O)C3C(c4ccc(OC)cc4O)NC(Cc4ccccc4)(C(=O)O)C3C2=O)cc1 (stereo not drawn)	-9%	-5%
CC[C@H]1OC(=O)[C@H](C)[C@@H](O[C@H]2C[C@@](C)(OC)[C@@H](O)[C@H](C)O2)[C@H](C)[C@@H](O[C@@H]2O[C@H](C)C[C@H](N(C)C)[C@H]2O)[C@](C)(OC)C[C@@H](C)C(=O)[C@H](C)[C@@H](O)[C@]1(C)O	-12%&-13%	-16%&-11%
COc1ccc(-c2csc3ncnc(Nc4ccccc4)c23)cc1	2%	-9%
COc1ccc(COc2cccc(C=O)c2)cc1	-10%	i
COc1ccc(NC(=O)C2CCC(CNC(=O)[C@@H]3Cc4ccccc4CN3)CC2)cc1 (stereo partly drawn)	1%[7.34 µM]	-3%[7.34 µM]
CN(CCO)c1cc(NCCCN2CCC(Cc3ccccc3)CC2)c2nonc2c1[N+](=O)[O-]	2%	-11%
O=C(c1ccc(-c2ccc([N+](=O)[O-])cc2)o1)N1CCCC(C(F)(F)F)C1 (stereo not drawn)	-11%	-15%
COc1ccc(CNC(=O)C[C@@H]2C[C@H]3c4cc(NC(=O)NC5CCCC5)ccc4O[C@H]3[C@H](CO)O2)cc1	-14%	-5%
CCNS(=O)(=O)c1ccc(CCC(=O)NCc2ccncc2)cc1	-3%	-11%
Cc1cccc(N(C)c2nc3ccc(C)cc3n3nnnc23)c1	-12%	-10%
CCC(O)c1nc2ccccc2n1CCc1ccccc1 (stereo not drawn)	-2%	-8%
O=c1oc(-c2cccs2)nc2sc3c(c12)CCC3	-4%	i

Not a retest: 3 of the compounds above.
SMILES	Vaccinia Venus	Vaccinia mCherry
Cc1cccc(N(C)c2nc3ccc(C)cc3n3nnnc23)c1	-12%	-10%
CCC(O)c1nc2ccccc2n1CCc1ccccc1 (stereo not drawn)	-2%	-8%
O=c1oc(-c2cccs2)nc2sc3c(c12)CCC3	-4%	i

Screening data (PubChem)

Outcome played no part in choosing rows; 0.87% or so of the library scored in one or more.
